Bioassay records deposited in PubChem BioAssay by National Center for Advancing Translational Sciences (NCATS).
VDR inhibitor: Inhibitors of the vitamin D receptor (VDR): qHTS | VDR-SRC2-3 peptide fluorescence polarization, 2 h | 400,000 compounds, 0.93% hits | Potency, µM, without a hit: max response, negative = inhibition, hits mostly inhibitors; active = well fitted inhibition curve with a large enough effect; inconclusive = small, poorly fitted or top-dose-only effect, or another doubt; inactive = no such curve, though single readings can be large or run the other way; also: series mostly up to about 120 µM
Target sequence (P11473 whole entry, looked up): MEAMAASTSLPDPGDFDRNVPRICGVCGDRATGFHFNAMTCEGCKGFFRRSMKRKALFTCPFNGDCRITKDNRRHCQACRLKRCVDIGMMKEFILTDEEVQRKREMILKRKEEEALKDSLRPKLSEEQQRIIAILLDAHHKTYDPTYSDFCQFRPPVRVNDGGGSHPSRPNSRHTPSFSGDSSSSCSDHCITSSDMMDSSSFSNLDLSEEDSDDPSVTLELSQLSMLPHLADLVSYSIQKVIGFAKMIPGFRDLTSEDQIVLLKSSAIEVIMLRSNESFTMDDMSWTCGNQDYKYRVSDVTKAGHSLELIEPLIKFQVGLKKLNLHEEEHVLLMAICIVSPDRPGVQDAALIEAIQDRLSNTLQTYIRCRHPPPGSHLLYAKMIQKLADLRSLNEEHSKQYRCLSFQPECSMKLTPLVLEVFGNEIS
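Inhibition of the VDR/SRC2-3 peptide interaction is quantified by fluorescence polarization. Compounds (23 nl, pintool) incubate with the reagents for 2 hours at ambient room temperature.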
* = called active by the depositor; & = joins results of further samples; [ ] = remark or other dose. % is scaled to controls: 0 for no effect and ±100 for the full control effect; potency is read from the fitted curve at half-maximal effect. These rows are one share of the data; rates above refer to the full screens.

CCCOc1ccc(CNC(=O)CCCn2ncn3c(cc4sc(CC)cc43)c2=O)cc1 was read as VDR inhibitor 8.6%.
CN1CCN(C(=O)c2ccc(Cn3cc(Cl)cn3)o2)CC1 was read as VDR inhibitor 3.4%.
For O=C(COC(=O)c1n[nH]c(=O)c2ccccc12)NCc1ccccc1 the results were VDR inhibitor -2.0%.
Screening CC(C)(O)C#Cc1ccc(CN2CCN(Cc3ccsc3)C(CCO)C2)s1 (stereo not drawn) returned VDR inhibitor 3.2%.
For C=CCn1c(SCC(=O)c2[nH]c(C)c(C(=O)OC)c2C)nc2scc(-c3ccc(OC)c(OC)c3)c2c1=O the results were VDR inhibitor -13.1%.
O=C(O)CCCC(=O)Nc1cccc2cccnc12 was read as VDR inhibitor 3.4%.
Screening O=C(CN(Cc1ccco1)C(=O)CNS(=O)(=O)c1ccc(Cl)cc1)NCc1ccc(F)cc1 returned VDR inhibitor -22.2%.
Screening CCOC(=O)N1CCN(S(=O)(=O)c2cc([N+](=O)[O-])c(C)cc2C)CC1 returned VDR inhibitor 4.2%.
Screening COC1=C(OC)C(=O)c2ccccc2C1=O returned VDR inhibitor 35.5µM*.
For CCC(C(=O)N1CCN(c2ccccc2F)CC1)n1nc(C)c2sc3ccccc3c2c1=O (stereo not drawn) the results were VDR inhibitor 5.3%.
CCc1ccc(C(=O)NNc2ccc(S(N)(=O)=O)cc2)cc1 was read as VDR inhibitor 6.3%.
Screening C=CCNC(=S)NN=C1CCC(c2ccccc2)CC1 (stereo not drawn) returned VDR inhibitor -2.8%.
For CC1(C)C2CCC(C2)C1(C)N=C1OC(CCl)CS1 (stereo not drawn) the results were VDR inhibitor -14.5%.
COc1ccc(-n2ncc3c2CC(C)(C)CC3NC(=O)c2c(C)cc(=O)oc2C)cc1 (stereo not drawn) was read as VDR inhibitor inconclusive.
`CCOC(=O)COc1ccccc1C(=O)c1cnn(-c2ccccc2)c1` gave VDR inhibitor 2.9%.
`CCOC(=O)C(NS(=O)(=O)c1ccccc1)(C(F)(F)F)P(=O)(OC(C)C)OC(C)C` (stereo not drawn) gave VDR inhibitor -8.0%.
For O=C1/C(=C/C=C/c2ccco2)SC(=S)N1c1ccc(O)cc1 the results were VDR inhibitor -25.7%.
CC(C)(C)NC(=O)Cn1nnc(-c2ccc(S(C)(=O)=O)cc2)n1 was read as VDR inhibitor -9.8%.
For COc1ccccc1N(C)S(=O)(=O)c1ccc(Cl)c(C(=O)NCCCN2CCOCC2)c1 the results were VDR inhibitor 1.8%.
Screening CCCN(CC(=O)Nc1ccccc1C)C(=O)c1ccc(NC2CC2)c([N+](=O)[O-])c1 returned VDR inhibitor -5.5%.
`C/C(Cl)=C/Cn1c(N2CCCC2)nc2c1c(=O)n(C)c(=O)n2C` gave VDR inhibitor -7.4%.
Cc1ccc(C)c(C2=NNC(=O)CC2)c1 was read as VDR inhibitor 6.1%.
For COc1cccc(N=Nc2ccc3ccccc3c2O)c1 the results were VDR inhibitor -19.4%.
Cc1cccn2cc(COc3cccc([N+](=O)[O-])c3)nc12 was read as VDR inhibitor 6.3%.
Screening O=C(NS(=O)(=O)NC1CCCCC1)C1=C(N2CCCC2)COC1=O returned VDR inhibitor -14.7%.
`O=[N+]([O-])c1ccc(/C=C/c2ccc3cccc([N+](=O)[O-])c3n2)cc1` gave VDR inhibitor -22.0%.
CCOC(=O)c1[nH]c(CO)c(C(=O)OCC)c1C was read as VDR inhibitor -4.2%.
For CCN(CC)c1ccc(O)c(C=Nc2ccc(C)c(C)c2)c1 the results were VDR inhibitor -15.4%.
Screening N#CCSc1nc2ccccc2o1 returned VDR inhibitor 1.7%.
Screening Cc1ccc(NCC(=O)N/N=C\C(Br)=C\c2ccccc2)cc1 returned VDR inhibitor -63.2%.
`Cc1cccc(OCC(=O)Nc2nc3ccc([N+](=O)[O-])cc3s2)c1` gave VDR inhibitor 15.8%.
`Cc1ccc(CNC(=O)C2(c3cccs3)CCOCC2)cc1` gave VDR inhibitor 6.4%&-6.4%.
For Cc1ccc(C2(CCN)CCOC(C(C)C)C2)cc1 (stereo not drawn) the results were VDR inhibitor 1.1%.
For NC(CSCC(=O)O)C(=O)O (stereo not drawn) the results were VDR inhibitor -5.0%.
CCCCNc1nc2ccccc2c2nc(-c3ccccc3)nn12 was read as VDR inhibitor -3.1%.
Screening N#CC1(NC(=O)COC(=O)CCN=C2NS(=O)(=O)c3ccccc32)CCCCC1 returned VDR inhibitor -3.5%.

Three entries already listed, arranged by length of the SMILES, smallest number first.
For NC(CSCC(=O)O)C(=O)O (stereo not drawn) the results were VDR inhibitor -5.0%.
For Cc1ccc(C2(CCN)CCOC(C(C)C)C2)cc1 (stereo not drawn) the results were VDR inhibitor 1.1%.
Screening Cc1ccc(NCC(=O)N/N=C\C(Br)=C\c2ccccc2)cc1 returned VDR inhibitor -63.2%.

Back to the main list, repeating the 4 entries before the break.
For Cc1ccc(C2(CCN)CCOC(C(C)C)C2)cc1 (stereo not drawn) the results were VDR inhibitor 1.1%.
For NC(CSCC(=O)O)C(=O)O (stereo not drawn) the results were VDR inhibitor -5.0%.
CCCCNc1nc2ccccc2c2nc(-c3ccccc3)nn12 was read as VDR inhibitor -3.1%.
Screening N#CC1(NC(=O)COC(=O)CCN=C2NS(=O)(=O)c3ccccc32)CCCCC1 returned VDR inhibitor -3.5%.
`O=C(c1cc(-c2ccc(Cl)cc2)on1)N1CCc2ccccc2C1` gave VDR inhibitor -5.5%.
Cc1ccc(C2CC(=O)Oc3ccc(O)cc32)cc1 (stereo not drawn) was read as VDR inhibitor -21.8%.
For Cn1c(=NC(=O)COc2ccccc2)sc2cccc(F)c21 the results were VDR inhibitor -4.2%.
`CCOc1ccc(C(c2c(NC(=O)c3ccccc3)sc(C)c2C)N2CCN(CCO)CC2)cc1` (stereo not drawn) gave VDR inhibitor -15.5%.
Screening CCn1c2ccccc2c2nnc(SCC(=O)c3ccccc3)nc21 returned VDR inhibitor 13.1%.
For Cc1ccccc1-c1noc(-c2ccccc2C(=O)N2CCCC2)n1 the results were VDR inhibitor 17.5%.
Screening Clc1ccc(-n2ncc3c(NCc4cccnc4)ncnc32)cc1Cl returned VDR inhibitor -6.5%.
O=c1sc(N2CCN(c3ccc(F)cc3)CC2)nc2ccsc12 was read as VDR inhibitor -7.1%.
`C=CCC1(Cl)C(=O)C(Cl)=C(N2CCN(C)CC2)C1(OC)OC` (stereo not drawn) gave VDR inhibitor -7.5%.
For CCN(CC)C1=CC2=CC(=C(C#N)C#N)CCC2CC1 (stereo not drawn) the results were VDR inhibitor -17.2%.
Screening O=C(/C=C/C(Cl)(Cl)Cl)Nc1ccc(Cl)cc1 returned VDR inhibitor -18.4%.
Screening Cn1c(N)c(C(=O)COC(=O)C2CCN(S(=O)(=O)c3cccs3)CC2)c(=O)n(C)c1=O returned VDR inhibitor -3.0%.
For CCc1sc(-c2cc3cccc(OC)c3oc2=O)nc1-c1cc(C)ccc1C the results were VDR inhibitor -7.7%.
For CCCN1CCN(S(=O)(=O)c2ccc(-n3cnnn3)cc2)CC1 the results were VDR inhibitor 4.0%.
`CCOC(=O)N1CCN(CC(=O)Nc2c(C(=O)OC)[nH]c3ccc(Cl)cc23)CC1` gave VDR inhibitor 8.7%.
O=C(Nc1scc(-c2ccc(F)cc2)c1C(=O)O)c1ccco1 was read as VDR inhibitor -5.2%.
For COc1ccc(CCNC(=O)CN2C(=O)C(=O)N(C3CCCC3)C2=O)cc1OC the results were VDR inhibitor -20.7%.
O=C1N(c2ccccc2)C(c2ccc(Cl)cc2)N2CCCN12 (stereo not drawn) was read as VDR inhibitor -3.7%.
For CC(NC(=O)Cn1c(=O)oc2cc(S(=O)(=O)NCc3ccccc3)ccc21)c1ccccc1 (stereo not drawn) the results were VDR inhibitor 3.8%.
CC(=O)Nc1nc(C)c(Oc2ccccc2)c(=O)[nH]1 was read as VDR inhibitor -10.6%.
`Cc1ccc(C(=O)N2CCC3(CC2)Oc2ccc(Cl)cc2C(=O)C32CC(c3ccccc3)=NO2)s1` (stereo not drawn) gave VDR inhibitor -27.0%.
For Cn1c(=O)c2c(ncn2CC(=O)Nc2cc(S(=O)(=O)N3CCCCC3)ccc2O)n(C)c1=O the results were VDR inhibitor -8.6%.
O=C(/C=C/c1ccccc1)NCCCNC(=O)/C=C/c1ccccc1 was read as VDR inhibitor -7.8%.
`O=C(CCN1CCCC1)Nc1cccc(Br)c1` gave VDR inhibitor 9.8%.
Screening C=CCn1c(SCc2ccc(Br)cc2F)nc2cc(C(=O)O)ccc2c1=O returned VDR inhibitor inconclusive.
CCc1ccc(C(=O)C(C)OC(=O)C2COc3ccccc3O2)cc1 (stereo not drawn) was read as VDR inhibitor -3.9%.
CCOC(=O)c1oc2cc(OC(C)=O)ccc2c(=O)c1-c1ccc(OC)c(OC)c1 was read as VDR inhibitor -26.2%.
O=[N+]([O-])c1cccc(/C=N/NC2CCS(=O)(=O)C2)c1 (stereo not drawn) was read as VDR inhibitor 5.0%.
For COc1ccc2[nH]c(-c3ccccc3)cc2c1 the results were VDR inhibitor -9.1%.
Screening CC(C)(C)OC(=O)N1CCN(C(=O)c2[nH]cnc2C(=O)Nc2nccs2)CC1 returned VDR inhibitor -5.5%.
COc1ccc(S(=O)(=O)Nc2ccc3cn[nH]c3c2)cc1C was read as VDR inhibitor -1.2%.
Screening CCOc1ncccc1C(=O)OCC(=O)NCCc1ccccc1 returned VDR inhibitor -2.2%.
`CC(C)OCCCNC(=O)c1ccc2c(c1)NC(=O)c1ccccc1S2` gave VDR inhibitor 4.1%&8.9%.
COCCn1c(C)cc(C2=NNC(=Nc3ccccc3F)SC2)c1C was read as VDR inhibitor -8.6%.
Screening CN(CC(=O)Nc1ccc(F)cc1)C(=O)COC(=O)/C=C/c1ccc(OC(F)F)cc1 returned VDR inhibitor -8.3%.
`C=CCn1c(-c2ccc(Cl)cc2)ccc(C#N)c1=O` gave VDR inhibitor -1.5%.
For Cc1ccc(C#CC(C)(O)C(C)(C)C)cn1 (stereo not drawn) the results were VDR inhibitor -15.5%.
`CCCc1cc(=O)n2nc(N3CCC(C(=O)Nc4c(F)c(F)c(F)c(F)c4F)CC3)sc2n1` gave VDR inhibitor -16.3%.
Screening CCOC(=O)/C(O)=C/c1ncc(C(F)(F)F)cc1Cl returned VDR inhibitor 3.1%.
Screening COc1cc(C(=O)OCC(=O)N2CCCCC2C)cc(NC(=O)c2cccs2)c1OC (stereo not drawn) returned VDR inhibitor 9.7%.
For COC(=O)c1cc2oc3ccccc3c2n1Cc1ccccc1Cl the results were VDR inhibitor -6.9%.
Cc1c(-c2ccc(Cl)cc2)c(=O)oc2c(CN3CCOCC3)c(O)ccc12 was read as VDR inhibitor 18.5%.
Screening O=C(COc1ccccc1)NCC(=O)N1CCCC1 returned VDR inhibitor -7.2%.
`O=C(Cn1cc(S(=O)(=O)Cc2ccccc2F)c2ccccc21)Nc1ccc(F)c(Cl)c1` gave VDR inhibitor 0.8%.
`CCc1c(O)nc(SCc2ccc(F)cc2)[nH]c1=O` gave VDR inhibitor -12.0%.
Screening Cn1c(=O)n(CCCc2ccccc2)c(=O)c2c1nc1n2CCN1c1ccc(F)cc1 returned VDR inhibitor 1.1%.
`NS(=O)(=O)c1ccc(NC(=S)NCc2ccc3c(c2)OCO3)cc1` gave VDR inhibitor 0.5%.
For c1ccc(N2CCN(c3nc4ccccc4[nH]3)CC2)nc1 the results were VDR inhibitor 5.9%.
For Cc1nnc(SCc2nnc(-c3cccs3)o2)n1Cc1ccccc1 the results were VDR inhibitor -5.6%.
Screening O=C(CC1C(=O)NCCN1C(=O)Nc1ccc(C(F)(F)F)cc1)Nc1ccc(F)cc1 (stereo not drawn) returned VDR inhibitor 8.4%.
Cc1c(NP(=O)(c2ccc(Br)cc2)c2ccc(Br)cc2)c(=O)n(-c2ccccc2)n1C was read as VDR inhibitor 2.8%.
CCN(CC)c1ccc(S(=O)(=O)N2CCOCC2)cc1NC(=O)CSc1n[nH]c(N)n1 was read as VDR inhibitor -22.6%.
For CCOc1ccc(S(=O)(=O)N/N=C\c2ccc3c(c2)OCO3)cc1 the results were VDR inhibitor 12.6%.
`COc1ccc(NC(=O)c2nn(C)c3c2CS(=O)(=O)c2ccccc2-3)cc1Cl` gave VDR inhibitor 3.2%.
Screening CCC(c1nc2ccccc2c(=O)n1CCN1CCOCC1)N1C(=O)c2ccccc2C1=O (stereo not drawn) returned VDR inhibitor 92.1%[activator].
O=C(c1ccc2c3c(cccc13)CC2)C1CCCN(C(=O)c2ccc[n+]([O-])c2)C1 (stereo not drawn) was read as VDR inhibitor -2.5%.
Screening CC(=O)c1ccc(NC(=O)CNc2cc(S(=O)(=O)N3CCOCC3)ccc2N2CCCC2)cc1 returned VDR inhibitor -9.2%.
Screening COc1ccc(CCNC(=O)C(C)n2nc(C)c3sc4ccccc4c3c2=O)cc1OC (stereo not drawn) returned VDR inhibitor -3.8%.
O=C(CSc1c2c(nc3cc(Cl)ccc13)CCCC2)NCCCN1CCOCC1 was read as VDR inhibitor -27.3%.
For COc1ccc(/C=C/c2cc(C(F)(F)F)on2)cc1 the results were VDR inhibitor -5.4%.
`O=C(Nc1ccc(F)cc1F)c1cc2nc(-c3ccco3)cc(C(F)(F)Cl)n2n1` gave VDR inhibitor 17.5%.
COc1cccc(CN(CC(=O)NCc2ccc(F)cc2)C(=O)c2ccco2)c1 was read as VDR inhibitor 2.9%.
COc1ccc(S(=O)(=O)NCc2cccnc2)cc1C(=O)Nc1ccccc1 was read as VDR inhibitor -21.7%.
For CCCCn1c(SCC(=O)Nc2cc(C)on2)nnc1-c1cccnc1 the results were VDR inhibitor 20.0%.
CNc1nc(Cl)nc(NC(C)(C)C)n1 was read as VDR inhibitor 16.7%.
Screening COc1ccc(CCn2c(C)cc(C(=O)CSc3nnnn3-c3ccccc3)c2C)cc1 returned VDR inhibitor 2.8%.
`Cc1cccc(N(CC(=O)Nc2ccccc2-c2ccccc2)S(=O)(=O)c2ccccc2)c1C` gave VDR inhibitor -9.9%.
